Bioassay records as filed in PubChem BioAssay.
PABP FP inh = PABP-poly(A) binding inhibition. PABP-poly(A) RNA binding, fluorescence polarization. inhibition, % at 35 µM. 290,000 tested, 1% active;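 active means 50% or more with normal probe brightness, or confirmed in later tests; about a fifth of its hits are not listed in these tables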;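 further: calls also rest on retests at 20 µM and on dose response follow-up; controls were probe without protein and protein plus probe with vehicle; some compounds called inactive have numbers as strong as hits; many hits fall short of the cut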
eIF4H FP inh = inhibitors of RNA binding by human eIF4H; Q15056; eIF4H fluorescence polarization binding assay; inhibition, % at 35 µM; 290,000 tested, 0.94% active;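 active means 50% or more with normal probe brightness, or confirmed in later tests; about a fifth of its hits are not listed in these tables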;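 further: calls also rest on retests at 20 µM and on dose response follow-up; 0% = protein and probe with vehicle and 100% = probe without protein; strong numbers were not always called active; many hits fall short of the cut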
MT1-MMP act inh = inhibitors of human MT1-MMP activation; HT1080 RFP-PRO-GFP cells, GFP/RFP ratio fluorescence, overnight; percent of plate control window, DMSO zero; GFP/RFP ratio change, % at 20 µM; 360,000 tested, 0.061% active; AID 651647;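 active means GFP/RFP ratio change of at least 30% with cell ATP level not reduced by more than half and red fluorescence within 50% of control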; further: strong numbers were not always called active
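Assay system: RFP-PRO-GFP reporter HT1080 cells; read-out basis: GFP/RFP fluorescence ratio; benchmarks: DMSO wells and RFP-L50D-GFP cells; doses: 20 µM single dose, 1% DMSO; schedule: overnight cell settling, then overnight compound exposure, 37 °C, 5% CO2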
Env fusion inh = inhibitors of HIV Env-mediated cell fusion | 360,000 tested, 1.1% active | inhibition, % at 12.3 µM | HeLa-JRFL Env/CEM21 cell fusion, luciferase;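 active means mean replicate inhibition score of at least 50 and every replicate individually at or above 50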;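 further: 0% = plate neutral controls and 100% = maraviroc near 300 nM; one replicate is shown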
Rce1 inhib = yeast Ras-converting enzyme inhibition | yeast membranes, quenched prenylated peptide cleavage fluorescence | calls only | 290,000 tested, 0.27% active | AID 2563;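 active means fall in fluorescence gain of 50% or more versus controls, with final raw signal at or below 3038400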;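 further: plate controls were neutral control wells for no effect and wells lacking membranes for full effect; tested at 10 µM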
Target sequence (Q03530 whole entry, looked up): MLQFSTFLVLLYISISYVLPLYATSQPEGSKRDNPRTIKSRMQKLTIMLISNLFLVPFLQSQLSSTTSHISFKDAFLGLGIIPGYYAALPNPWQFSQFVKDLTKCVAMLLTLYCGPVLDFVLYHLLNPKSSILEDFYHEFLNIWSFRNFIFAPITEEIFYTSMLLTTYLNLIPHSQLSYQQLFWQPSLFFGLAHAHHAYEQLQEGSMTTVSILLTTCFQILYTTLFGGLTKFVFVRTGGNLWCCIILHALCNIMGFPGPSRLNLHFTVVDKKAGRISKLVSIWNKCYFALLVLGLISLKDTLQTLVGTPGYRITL
UUG fidelity = alters start codon recognition fidelity in yeast; activity score, % at 18.7 µM; AID 602363; S. cerevisiae UUG-firefly luciferase reporter, luminescence/redox ratio; 350,000 tested, 0.13% active;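 active means replicate mean at a twofold rise or more, about +100% in these data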;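 further: firefly luciferase made from a UUG start codon reports start codon fidelity; reporter light over untreated wells divided by growth signal over untreated wells; some hits fall short of that in this replicate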
CSC inhib = cancer stem cell inhibition; cancer stem cell-like cells viability, luminescence; inhibition, % at 7.5 µM; 300,000 tested, 1.1% active; AID 2717;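 active means mean at 75% or more and at least half the replicates too; tested in HMLE shEcad cells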;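 further: 0% = median of negative and 100% = median of positive control wells; the first replicate is given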
MT1-MMP act inh RFP = also measured in MT1-MMP act inh; calls as there; RFP signal change, %; measured here: RFP expression control read;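 0 = vehicle wells; hits needed this value within 50% of zero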
* marks the source's active call; other numbers are inactive results; i = inactive; . = no result given; & = joins results of further samples; [ ] = dose if it differs, or a comment. Not all compounds are listed; the hit share may differ from the screen's.

canonical_smiles,Rce1 inhib,UUG fidelity,PABP FP inh,MT1-MMP act inh,eIF4H FP inh,MT1-MMP act inh RFP,Env fusion inh,CSC inhib
C=CCn1c(-c2ccccc2)cc(SC)c(C#N)c1=O,i,6.5,-1.0,-5.7,10.6,-5.7,-4.6,17.1
CCC1Sc2ccccc2N(CC(=O)NCc2ccccc2OC)C1=O (stereo not drawn),i,-9.3,-2.9,0.7,12.6,-1.3,-14.6,13.5
O=C(Oc1cncc(Cl)c1)c1sccc1Cl,i,-15.3,.,0.9,.,2.5,-88.0,-4.9
Cc1csc(=NC(=O)c2ccccc2)n1C,i,4.8,1.0,-2.6,2.2,-8.6,-154.3,-8.7
COc1ccc(OC)c(CCNC(=O)C(C)n2nc(C)c3c(C)n(-c4ccc(C)cc4)nc3c2=O)c1 (stereo not drawn),i,-0.5,.,6.9,.,-30.9,22.5,7.6
CC1(C)CC(=O)C2=C(C1)NC(=O)CC2C(=O)NCc1ccc(F)cc1 (stereo not drawn),i,.,-3.7,.,-5.0,.,17.9,.
CC(O)(c1ccccc1)C(c1ccccc1)C1CCCCN1 (stereo not drawn),i,-11.4,-2.2,1.7,0.6,6.0,6.5,-11.3
Cn1c2c(c(=O)n(C)c1=O)C(C(F)(F)F)(C(F)(F)F)N=C(CCC1CCCCC1)N2,i,0.5,-9.6,-16.3,-12.2,-29.2,.,9.6
O=C(NCc1nc2ccccc2[nH]1)C1=C[C@@H](C2CC2)C[C@@H](OCc2ccc(CO)cc2)O1,i,-8.5&-24.0,6.0,1.1,47.9,-3.8,5.6[16.7 µM],-3.3
CCc1cccc(OCCCn2ccnc2)c1,i,.,5.9,0.3,9.8,0.8,2.0,.
Cc1cc(C)c(C#N)c(Cl)n1,i,-6.3,1.7,2.5,-18.9,6.1,-8.7,-0.4
O=C(c1cccc(S(=O)(=O)N2CCOCC2)c1)N(CCc1ccccc1)Cc1ccccc1,.,19.5,.,-5.8,.,-7.1,12.8,-13.2
N#C/C(=C\c1c(F)cccc1Cl)c1nn(-c2ccccc2)c(-n2cccc2)c1C#N,i,-18.1,1.9,3.0,-9.1,-6.3,-4.1,94.5*
COc1ccc(N(CC(=O)Nc2ccccc2C(F)(F)F)C2=NC3CS(=O)(=O)CC3S2)cc1 (stereo not drawn),i,-2.2,5.5,-0.3,-3.6,1.1,2.8,-1.8
O=S(=O)(c1ccc(Cl)nc1)N1CCCCC1,i,-11.5,6.3,5.0,-3.3,8.3,6.5,-0.5
CC[C@@]1(C(=O)OC)N[C@H](CN(C)C(=O)Nc2ccc(C)cc2)[C@@H]2C(=O)N(Cc3ccccc3)C(=O)[C@@H]21,.,33.8,.,3.0,.,4.7,66.3*,.
COc1ccc(C(=O)NCC(=O)Nc2ccc(-c3ccccc3)cc2)cc1,i,-11.6,-5.0,2.7,36.2,3.0,2.8,9.5
Cc1cccc(C)c1NC(=O)CCCSc1nc2ccccc2s1,i,-32.8,12.3,-9.4,-7.1,-1.3,-8.4,5.4
Cc1ccc(S(=O)(=O)NCCC(=O)N2CCC(C(N)=O)CC2)cc1C,i,0.7,.,-3.4,.,3.5,1.4,-2.4
O=C(CSc1cccc[n+]1[O-])Nc1ccc([N+](=O)[O-])cc1Cl,i,.,-5.4,1.9,3.1,1.6,10.7,-7.6
Cc1ccc(C(=O)CCC(=O)Nc2cc(C)ccn2)cc1,.,-11.5,.,-5.3,.,0.7,-0.8,6.2
CCCCN(CC(=O)NC(C)(C)C)C(=O)C(=O)Nc1ccc2c(c1)OCCO2,i,5.4,9.2,-0.6,-0.4,7.3,1.3,-4.9
CC(=O)N(CCC1(C(C)C)CCOC(C)(C)C1)Cc1ccco1 (stereo not drawn),i,-3.5,7.3,2.6,-5.6,0.3,-4.3,7.2
CCn1cc(S(=O)(=O)Nc2ccc3c(c2)OCCO3)cn1,i,.,-1.5,0.5,-9.4,2.2,-28.8,-33.1
NC(=O)c1ccccc1OC1CCC1,i,2.0,-0.8,1.3,7.9,3.8,10.0,-9.2
Cc1ccc(Cc2nc(-c3ccncc3)no2)cc1,.,.,-15.7,0.7,1.2,-5.4,31.5,3.4
CCOC(=O)C1=C(CC)Nc2ccccc2N=C1NC(=O)c1ccc(S(=O)(=O)N(C)C)cc1,i,-29.7,0.2,-4.1,-3.5,-4.6,-69.1,.
O=C(c1ccco1)N1CCN(CC(=O)N(C2CCCCC2)C2CCS(=O)(=O)C2)CC1 (stereo not drawn),i,-0.6,3.5,-0.6,-5.0,3.3,.,23.5
COc1ccc(C2(NC(C)=O)CCN(C(=O)c3cccs3)CC2)cc1,i,-11.9,9.8,-0.2,0.4,-2.3,.,-9.7
Cc1ccc(OCCCC(=O)NC(C)c2ccccc2)cc1 (stereo not drawn),i,-6.9,-9.0,-4.2,10.8,-1.7,.,-18.0

An excerpt from above, reduced to Rce1 inhib.
compound,Rce1 inhib
O=C(Oc1cncc(Cl)c1)c1sccc1Cl,i
Cc1csc(=NC(=O)c2ccccc2)n1C,i
COc1ccc(OC)c(CCNC(=O)C(C)n2nc(C)c3c(C)n(-c4ccc(C)cc4)nc3c2=O)c1 (stereo not drawn),i
CC1(C)CC(=O)C2=C(C1)NC(=O)CC2C(=O)NCc1ccc(F)cc1 (stereo not drawn),i

Pulled one by one from the list above (4):
canonical_smiles,Rce1 inhib,UUG fidelity,PABP FP inh,MT1-MMP act inh,eIF4H FP inh,MT1-MMP act inh RFP,Env fusion inh,CSC inhib
COc1ccc(OC)c(CCNC(=O)C(C)n2nc(C)c3c(C)n(-c4ccc(C)cc4)nc3c2=O)c1 (stereo not drawn),i,-0.5,.,6.9,.,-30.9,22.5,7.6
Cc1cc(C)c(C#N)c(Cl)n1,i,-6.3,1.7,2.5,-18.9,6.1,-8.7,-0.4
Cn1c2c(c(=O)n(C)c1=O)C(C(F)(F)F)(C(F)(F)F)N=C(CCC1CCCCC1)N2,i,0.5,-9.6,-16.3,-12.2,-29.2,.,9.6
Cc1ccc(C(=O)CCC(=O)Nc2cc(C)ccn2)cc1,.,-11.5,.,-5.3,.,0.7,-0.8,6.2

Later entries.
canonical_smiles,Rce1 inhib,UUG fidelity,PABP FP inh,MT1-MMP act inh,eIF4H FP inh,MT1-MMP act inh RFP,Env fusion inh,CSC inhib
Cc1cnn(-c2cc(Oc3ccccc3)ncn2)c1,i,24.7,0.1,4.3,-10.3,-1.0,.,3.9
CCC(C)C(=O)N1CCCC(c2nc(-c3cccs3)no2)C1 (stereo not drawn),i,-3.7,1.8,0.1,-5.8,2.6,-80.0,-9.5
Cc1ccc(C(C)(C)C)c(OCCCn2ccnc2)c1,i,.,5.8,-5.9,4.8,-1.9,.,1.7
CS(=O)(=O)N1CCC(C(=O)Nc2ccc(C(F)(F)F)cc2)CC1,i,.,9.9,2.5,-4.7,3.2,-9.5,3.7
CCCOc1ccc(CNC(=O)c2ccc3nc(N4CCOCC4)sc3c2)cc1,i,-2.5,-12.9,2.4,-0.1,5.1,3.6,1.6
